gsp antag: antagonists of gsp mutant (McCune-Albright syndrome); gsp-mutant cells, cAMP HTRF, 30 min; control for the full effect not named in the record; Potency, µM (series often up to 76.9 µM), for inactives: at the top dose activity change, negative = inhibition, most hits filed as inhibitors; actives 0.4% (n = 340,000); AID 624288; active = falling curve of any shape with a large fitted effect; inconclusive = falling curve, mostly with a smaller effect; inactive = flat or rising curve; cell line not stated here;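 also: intracellular cAMP measured with PDE inhibitor Ro 20-1724 present during compound exposure; potency is read from the fitted curve at half-maximal effect; % is scaled to controls: 0 for no effect and ±100 for the full control effect; nearly all actives have a fitted effect of over 65% in size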
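HTRF cAMP read-out (cAMP-d2 plus anti-cAMP antibody-K in lysis buffer, 30 min RT). Before lysis, cells are exposed to compounds with […] for 30 min at 37C in DPBS containing Ca/Mg, BSA and Tween 20.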
TRPV1 potentiator: enhances activation of the human vanilloid receptor TRPV1; potentiation, % at 8.33 µM; AID 540277; actives 0.02% (n = 320,000); TRPV1-expressing cells, Fluo-8 calcium influx, capsaicin EC20 potentiation; host cell line not named in the record; control for the full effect not named in the record; Q8NER1; active means potentiation above 80%; inconclusive means 30% to 80%; inactive means below 30%; also: 0% is about no effect
Target sequence (Q8NER1 whole entry, looked up): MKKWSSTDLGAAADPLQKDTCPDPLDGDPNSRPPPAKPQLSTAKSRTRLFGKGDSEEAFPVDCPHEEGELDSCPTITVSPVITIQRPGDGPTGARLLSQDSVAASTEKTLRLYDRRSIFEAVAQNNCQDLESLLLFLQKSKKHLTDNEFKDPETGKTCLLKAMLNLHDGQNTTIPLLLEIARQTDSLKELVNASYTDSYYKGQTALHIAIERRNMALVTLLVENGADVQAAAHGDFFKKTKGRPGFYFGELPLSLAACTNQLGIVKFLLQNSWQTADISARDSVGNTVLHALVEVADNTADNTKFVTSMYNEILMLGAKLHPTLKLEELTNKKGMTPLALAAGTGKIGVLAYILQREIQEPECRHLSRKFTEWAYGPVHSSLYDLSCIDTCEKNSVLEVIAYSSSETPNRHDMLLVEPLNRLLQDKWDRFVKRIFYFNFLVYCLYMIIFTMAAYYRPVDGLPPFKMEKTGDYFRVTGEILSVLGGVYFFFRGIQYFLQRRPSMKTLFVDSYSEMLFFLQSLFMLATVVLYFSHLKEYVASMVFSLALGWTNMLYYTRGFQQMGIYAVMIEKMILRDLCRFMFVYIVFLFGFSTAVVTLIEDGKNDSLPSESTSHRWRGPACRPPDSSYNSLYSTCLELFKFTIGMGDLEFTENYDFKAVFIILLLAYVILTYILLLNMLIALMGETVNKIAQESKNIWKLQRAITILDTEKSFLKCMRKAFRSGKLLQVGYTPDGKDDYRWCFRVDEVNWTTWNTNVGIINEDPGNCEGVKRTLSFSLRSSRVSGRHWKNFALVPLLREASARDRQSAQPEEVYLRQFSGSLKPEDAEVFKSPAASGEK
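Cells expressing TRPV1 were dye-loaded with Fluo-8 and read kinetically: 10 s baseline, 3 min after compound (agonist portion), then 2 min after EC20 capsaicin (allosteric enhancer portion). Calcium-bound dye fluorescence at 480/520 nm.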
Sfp inh: Sfp phosphopantetheinyl transferase inhibition. Biochemical Sfp PPTase activity, qHTS. Q9F4F7. Potency, µM, inactives show max response, negative = inhibition, hits mostly inhibitors. AID 1490. actives 3.5% (n = 310,000); active = well fitted inhibition curve with a large enough effect; inconclusive = small, poorly fitted or top-dose-only effect, or another doubt; inactive = no such curve, though single readings can be large or run the other way;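 also: the enzyme is Sfp with the accession as filed and its product quenches rhodamine fluorescence; potency is read from the fitted curve at half-maximal effect; 0% = enzyme reaction without inhibitor and -100% = no enzyme wells; top concentration of the series not given in the record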
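Fluorescence-quenching assay: 15 nM Sfp-PPTase preincubated 15 min at room temperature with compound, then 5 uM rhodamine-CoA and 12.5 uM BHQ-2-labelled YbbR peptide added. Fluorescence (ex 525/em 598 nm) read at start and after 30 min; difference gives rate.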
Menin MLL FP FL: displaces fluorescein MLL peptide from human menin; FP activity change, % at 61.4 µM; AID 1766; 290,000 tested, under 10 active; Fluorescence polarization, fluorescein-MLL peptide displacement from menin; inconclusive = falling polarisation curve, or a change in total fluorescence; inactive = total fluorescence flat and polarisation flat or rising; no compound was filed as active; the % refers to the polarisation; negative = inhibition;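 also: % of control where 0% means no effect; inhibitors lower the polarisation; unlabelled MLL peptide was the positive control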
gsp agonist: gsp mutant agonism; gsp mutant cells, cAMP HTRF, 30 min; control for the full effect not named in the record; Potency, µM (titrated, usually from 76.9 µM), inactives show at the highest dose activation (cAMP increase), usual class: activators; actives 0.13% (n = 340,000); AID 624287; active = well fitted activation curve with a large enough effect; inconclusive = small, poorly fitted or top-dose-only effect, or another doubt; inactive = no such curve, though single readings can be large or run the other way; cell line not stated here;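 also: phosphodiesterase inhibitor Ro 20-1724 added with compounds to block cAMP breakdown; potency is read from the fitted curve at half-maximal effect; nearly all actives have a fitted effect of over 60% in size; about a fifth of the inactives were tested at one dose only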
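Cells stably selected in G418 were plated at 2000/well, grown 16-24 hr, then given compounds in DMSO with the PDE inhibitor […] (300 uM solution added) for 30 min at 37C; cAMP was read by HTRF.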
CtBP-E1A blk: blocks the CtBP interaction with E1A; AlphaScreen GST-E1A/His-CtBP binding, 1536-well; hits give low values; control for the full effect not named in the record; activity change, % (concentration not given with the values); actives 0.49% (n = 340,000); in the data active means activity change below about -65%; inconclusive means about -30% to -65%; inactive means above about -30%; also: % is scaled to controls: 0 for no effect and ±100 for the full control effect
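In 5 uL wells, 23 nL compound meets equimolar GST-E1A and His-CtBP (5X stock 125 nM each) for 2 h, 37 °C. Beads (5X, 50 ug/mL) then 1 h, 37 °C, dark.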
ClpP mod: qHTS Assay for Activators of ClpP | purified B. subtilis ClpP, FRET peptide cleavage, 20 min | Potency, µM (top dose mostly 57.5 µM), inactives show at the top dose activity change, negative = active | actives 1.9% (n = 340,000) | AID 651965, 2013; active = well fitted falling curve with a large enough effect; inconclusive = small, poorly fitted or top-dose-only effect; inactive = no such curve, though single readings can be large or run the other way; also: potency is read from the fitted curve at half-maximal effect; the source files actives as falling curves though it sought activators and does not explain the sign; nearly all actives have a fitted effect of over 65% in size; many hits overshoot -100%
Target sequence (P80244 whole entry, looked up): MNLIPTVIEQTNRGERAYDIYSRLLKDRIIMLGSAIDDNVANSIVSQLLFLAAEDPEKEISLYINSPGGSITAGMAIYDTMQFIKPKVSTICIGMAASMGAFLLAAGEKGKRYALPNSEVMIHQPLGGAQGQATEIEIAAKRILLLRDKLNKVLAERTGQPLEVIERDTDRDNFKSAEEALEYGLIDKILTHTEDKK
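Buffer: 100 mM Tris/HCl pH8, 100 mM KCl, 0.05% low protease BSA, 2.5% glycerol, 0.01% Tween-20. ClpP 10 microg/mL final; 20 min RT; delta FRET normalized to ADEP and DMSO controls.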
The depositor's hits bear a star; ? = inconclusive; / = not tested or not shown; [ ] = another dose, or the depositor's remark.

SMILES | gsp antag | TRPV1 potentiator | Sfp inh | Menin MLL FP FL | gsp agonist | CtBP-E1A blk | ClpP mod
Cc1ccccc1CN(C)C(=O)CNC(=O)c1ccc2ccccc2c1 | 3.4% | -30.2 | 8.8% | -0.1 | 11.6%[15.4 µM] | 3.4 | -0.5%
COC(=O)CNC(c1ccccc1)c1cc(Br)ccc1NS(=O)(=O)c1ccccc1 (centres undefined) | 18.0% | -0.5 | -5.4% | -1.8 | 0.9%[15.4 µM] | 9.6 | ?
CCOC(=O)c1c(NC(=O)CS(=O)(=O)c2cn(CC)c3ccccc23)sc2c1CCCCC2 | ? | 16.5 | 0.9% | 3.3 | -97.9%[inhibitor] | -9.1 | -11.6%
O=C(COC(=O)c1ccc(F)cc1F)NCc1ccc2c(c1)OCO2 | 13.6% | / | / | / | -6.1%[15.4 µM] | 5.1 | -1.1%
O=C(Nc1cc(S(=O)(=O)Nc2ccc(Cl)cc2)ccc1N1CCCCC1)c1ccc(F)cc1 | -14.0% | -7.0 | 14.1µM* | -0.3 | -47.1%[inhibitor] | -13.9 | ?
Cc1cc2nc(/C=C/c3nc4cc(C)c(C)cc4[nH]3)[nH]c2cc1C | -1.4% | ? | -20.4% | 9.6 | 2.7% | / | -9.6%
CCOC(=O)C1=C(C)NC(=O)NC1c1ccc([N+](=O)[O-])o1 (centres undefined) | -12.3% | 6.1 | 6.8% | ? | 12.1% | 4.4 | 0.9%
CC(=O)c1ccc(NC(=O)CCSCCC(=O)Nc2ccc(C(C)=O)cc2)cc1 | -7.5% | 1.3 | -1.9% | 0.3 | -16.0% | -0.7 | -4.1%
CC1CCCC(NC(=O)c2cccc(S(=O)(=O)N3CCN(c4ccccc4)CC3)c2)C1C (centres undefined) | 8.1% | 16.6 | / | / | -21.9% | -1.5 | -13.8%
CCOC(=O)c1cnn(-c2ccccc2)c1-n1cccc1C(=O)C(=O)Nc1ccc(OC)cc1 | -20.0% | -10.7 | 20.3% | 3.4 | -1.1% | -14.4 | -2.7%
Cn1/c(=N/NC(=O)c2ccccc2Br)sc2ccccc21 | -1.3% | -0.1 | 7.1% | 1.5 | 13.4% | 1.7 | /
Cc1cnc(CN(C)C(=O)C2CCC(=O)N(CCc3cccc(F)c3)C2)[nH]1 (centres undefined) | 13.2% | 20.1 | 7.4% | / | -20.6% | 1.6 | -1.7%
CCCCCn1nc(C(=O)N(CCOC)c2c(N)n(CCCC)c(=O)[nH]c2=O)c2ccccc2c1=O | 6.9% | -12.3 | / | / | -11.1%[15.4 µM] | 5.9 | -3.1%
Cc1cccc(CCNC(=O)CC2C(=O)NCCN2CC2CCCCC2)n1 (centres undefined) | 1.1% | 2.6 | 12.0% | -14.1 | 6.6%[15.4 µM] | -4.9 | /
COc1ccc(-c2oc3ccccc3c2C(=O)OCc2ccc([N+](=O)[O-])cc2)cc1 | 4.2% | 12.0 | -7.9% | -4.5 | -48.0%[inhibitor] | 2.3 | -6.2%
Cc1cc(Br)ccc1NC(=O)CN(C)C(=O)c1ccc(-n2cncn2)c([N+](=O)[O-])c1 | -10.6% | -5.5 | / | / | 3.7% | -23.8 | -4.6%
CC(C)N1C(=O)C2ON(c3ccccc3)C(c3cccs3)C2C1=O (centres undefined) | -8.0% | -6.1 | 16.9% | 1.5 | -24.3% | 15.8 | 0.3%
[O-][n+]1ccccc1/C=C/c1ccccc1 | -2.4% | / | / | / | 1.3%[15.4 µM] | 5.1 | -9.5%
CCCCCC(=O)Nc1ccc(S(=O)(=O)NC2=NCCCCC2)cc1 | -1.8% | -0.3 | / | / | 17.7% | 4.8 | 3.5%
CN(Cc1ccno1)Cc1cn(C)nc1-c1ccc(Oc2ccccc2)cc1 | ? | 2.2 | 11.2% | 3.3 | -1.1% | -1.8 | /

A few values from the results shown:
Entry of `CCOC(=O)c1cnn(-c2ccccc2)c1-n1cccc1C(=O)C(=O)Nc1ccc(OC)cc1` under Menin MLL FP FL: 3.4
Entry of `Cn1/c(=N/NC(=O)c2ccccc2Br)sc2ccccc21` under gsp antag: -1.3%

Next section
SMILES | gsp antag | TRPV1 potentiator | Sfp inh | Menin MLL FP FL | gsp agonist | CtBP-E1A blk | ClpP mod
COC(=O)C1=C(C)NC(=O)NC1c1ccccc1Cl (centres undefined) | 2.9% | 4.9 | -2.9% | -4.3 | 1.5% | -5.4 | -2.3%
CN(C(=O)COC(=O)CNS(=O)(=O)/C=C/c1ccccc1)C1CCS(=O)(=O)C1 (centres undefined) | 12.0% | 10.0 | 13.0% | 3.0 | 7.6% | 0.0 | 1.3%
C/C(=N\N(c1ccccc1)c1ccccc1)c1ccc(N)cc1 | -10.6% | / | / | / | -25.2% | / | -0.4%
COc1ccc(NS(=O)(=O)c2ccc(C)c(NC(=O)CNC(=O)c3ccco3)c2)cc1 | 6.7% | 22.6 | / | / | -33.5%[inhibitor] | 3.1 | -1.6%
CCC(=O)Nc1ccccc1C(=O)OCC(=O)Nc1ccc(S(N)(=O)=O)cc1 | 11.7% | 6.0 | 14.3% | 0.6 | 11.6% | 1.1 | -28.9%
CC(C)n1cnnc1SCC(=O)Nc1ccc(N2CCCCC2)cc1 | -4.8% | 4.0 | / | / | 23.1%[15.4 µM] | 1.4 | /
CCn1c(C)cc(/C=C2\NC(=O)N(Cc3ccc(Cl)cc3)C2=O)c1C | -2.2% | 11.4 | 0.9% | 3.9 | -7.6% | -13.5 | -5.7%
COc1ccc(C(=O)NCCc2cc3ccc(C)c(C)c3[nH]c2=O)cc1OC | -3.4% | -9.3 | 1.9% | 3.2 | -35.1%[inhibitor] | 2.7 | -15.3%
O=C(O)c1ccccc1C(=O)Nc1ccc(S(=O)(=O)NC2CCCCC2)cc1 | 11.2% | 0.2 | 9.9% | 1.5 | -2.2% | 1.4 | 0.9%
COc1ccccc1NC(=O)N1CCCC1C(=O)NC1CCCCC1 (centres undefined) | 15.5% | 9.7 | 11.1% | 3.2 | -6.3% | 1.1 | -0.8%
Cc1cc(C)cc(NC(=O)C2C3C=CC4(O3)C2C(=O)N(CCCN2CCCCC2)C4C(=O)NC2CCCCC2)c1 (centres undefined) | 9.1% | 24.1 | 9.7% | 0.4 | -41.6% | 3.4 | /
CN(C(=O)C1CCCN(S(=O)(=O)c2cccc([N+](=O)[O-])c2)C1)C1CCS(=O)(=O)C1 (centres undefined) | / | 1.2 | 14.0% | 5.2 | -1.7%[15.4 µM] | -12.2 | /
COc1cc(NC(=O)Cn2ccsc2=N)c(C)cc1[N+](=O)[O-] | -3.4% | 5.9 | 1.3% | 0.3 | -256.9%[inhibitor] | / | 1.8%
COc1ccc(S(=O)(=O)N2CCN(C(=O)/C=C/c3ccco3)CC2)cc1 | -10.4% | 14.4 | / | / | 16.4%[15.4 µM] | 6.1 | /
COc1ccc(C)c2sc(N(CCCN(C)C)C(=O)c3ccc4c(c3)OCCO4)nc12 | -12.3% | 22.9 | / | / | -10.1% | -8.3 | -4.7%
CN(C)CCN(C(=O)c1cccc2ccccc12)c1nc2cc3c(cc2s1)OCO3 | 0.0% | 4.2 | 79.4µM* | -3.6 | ? | ? | -5.0%
CC1CC(c2ccccc2)n2nc(NC(=O)c3ccco3)nc2N1 (centres undefined) | 1.9% | -4.2 | -1.0% | 1.7 | -16.6% | 2.6 | -1.1%
CSc1ncc(CO)n1Cc1ccccc1 | 14.3% | -5.4 | 13.4% | -3.8 | -4.7%[15.4 µM] | -13.7 | /
O=C(COC(=O)C12CC3CC(CC(C3)C1)C2)N1CCN(S(=O)(=O)c2ccccc2)CC1 | -1.6% | -9.4 | 12.4% | 6.3 | ? | -8.1 | -1.2%
O=C(Nc1nccs1)C1CC(=O)N(c2ccccc2)C1 (centres undefined) | 3.6% | 2.9 | 8.4% | -0.6 | 19.6% | 2.6 | /
CCC(C)NC(=O)c1ccc(NC(=O)CC2SC(N3CCCCC3)=NC2=O)cc1 (centres undefined) | 8.2% | ? | / | / | 16.6% | / | -0.2%
Cc1cc(-c2nnnn2-c2ccc(C(F)(F)F)cc2)no1 | 4.3% | -2.0 | 3.6% | 2.9 | 12.0%[15.4 µM] | 4.4 | -5.2%
CCCCCC(=O)Nc1cc(N(C)C)nc2ccccc12 | 2.9% | 23.8 | 2.9% | 1.8 | -14.4% | 5.8 | 28.2µM*
CC1(C)CC(Cc2ccc(C(=O)c3ccccc3)cc2)N(C(=O)OC(C)(C)C)N1 (centres undefined) | / | / | / | / | -20.2% | -1.0 | -0.6%
Cn1c2ccccc2c2cc(/C=N/NC(=O)c3cc(O)ccc3O)ccc21 | -15.6% | 10.9 | -22.0% | -0.7 | 15.4%[15.4 µM] | ? | -4.3%
CC(C)OCCCNC(=O)CN1C(=O)CC(C)(C)S(=O)(=O)c2ccccc21 | 10.4% | -1.1 | -0.2% | -2.4 | 2.9% | 4.0 | 2.2%
N#C/C(=C\c1ccccc1)C(=O)NCCN1CCOCC1 | 6.5% | 5.1 | 13.2% | -1.5 | -16.0%[15.4 µM] | 3.7 | -0.6%
CCOC(=O)CSc1nnc(CNC(=O)c2cccc(C)c2)n1C | -2.4% | -12.2 | 18.2% | -5.4 | 0.5%[15.4 µM] | -0.6 | /
COc1ccc(-c2csc3[nH]c(=S)n(-c4ccccc4)c(=O)c23)cc1OC | -7.4% | 14.9 | -24.7% | 0.9 | ? | 0.8 | /
CCc1nccn1CCC(=O)N1CCCC(N2CCN(c3ccccc3F)CC2)C1 (centres undefined) | 3.9% | -17.6 | 1.4% | -2.7 | 1.3% | -8.3 | -0.9%
COc1ccc(S(=O)(=O)N2CCC(C(=O)Nc3nccs3)CC2)cc1 | 9.3% | -4.7 | -17.7% | / | -2.6% | 0.7 | 1.2%
Cn1c(=O)c2c(nc(Br)n2CCSc2nc3ccccc3o2)n(C)c1=O | -16.7% | 2.3 | -29.2% | 0.3 | -40.9%[inhibitor] | 6.4 | -0.2%
CC(Sc1nc(N)c(NC(=O)c2ccc(Br)o2)c(=O)[nH]1)C(=O)O (centres undefined) | 2.2% | 1.6 | 18.5% | / | -9.4%[15.4 µM] | 3.8 | 0.2%
Cc1sc(NC(=O)c2cccnc2)nc1-c1ccccc1 | 9.0% | -6.8 | -22.5% | -0.8 | 5.6% | / | -6.3%
O=C(Nc1nc(-c2ccc3c(c2)OCCO3)cs1)C1CCCC1 | -7.8% | -5.8 | 5.0% | -1.8 | 1.7% | -10.9 | -4.1%
